Source: PubChem BioAssay (several laboratories)
PKD1 kinase inh – blocks activity of human protein kinase D1; Q15139; PKD1 kinase fluorescence polarization assay; inhibition, %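 (about 10 µM by stock and volumes)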; 200,000 tested, 0.056% active; AID 797;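 active means inhibition of 50% or more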;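 further: controls were vehicle for no effect and a reference inhibitor for full effect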
RGS16-Gao – RGS16-Galphao interaction regulator (human); O15492+P09471; bead-based flow cytometry RGS16-Galphao binding, fluorescence; actives lie on both sides; binding response (% of control), % at 10 µM; 220,000 tested, 0.38% active;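 active means below 25% or above 175%, edge rows of some plates excepted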;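 further: Galphao activated by GDP with aluminum fluoride before binding; 100% = wells without compound and 0% = beads without RGS; some results beyond the cut were filed as inactive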
Target sequence (O15492 whole entry, looked up): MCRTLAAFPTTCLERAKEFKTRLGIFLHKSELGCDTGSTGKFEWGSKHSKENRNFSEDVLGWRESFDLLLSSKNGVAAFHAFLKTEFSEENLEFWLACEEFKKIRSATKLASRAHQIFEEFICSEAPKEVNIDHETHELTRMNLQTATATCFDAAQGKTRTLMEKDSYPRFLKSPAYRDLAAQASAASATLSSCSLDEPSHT
Target sequence (P09471 whole entry, looked up): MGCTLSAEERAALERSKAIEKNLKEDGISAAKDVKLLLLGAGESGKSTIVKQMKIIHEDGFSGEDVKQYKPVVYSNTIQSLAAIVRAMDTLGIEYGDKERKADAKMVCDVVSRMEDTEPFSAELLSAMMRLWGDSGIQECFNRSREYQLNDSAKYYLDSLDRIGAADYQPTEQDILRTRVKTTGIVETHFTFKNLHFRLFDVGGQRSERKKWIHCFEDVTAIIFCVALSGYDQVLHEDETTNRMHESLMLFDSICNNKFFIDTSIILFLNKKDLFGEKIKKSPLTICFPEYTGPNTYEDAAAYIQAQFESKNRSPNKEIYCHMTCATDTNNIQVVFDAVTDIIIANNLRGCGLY
Insulin prom inh – TRM-6 insulin promoter activity inhibition; TRM-6 cells (human fetal islet line), insulin promoter-eGFP reporter, imaging; reporter expression induced with tamoxifen; inhibition, % at 2 µM; 130,000 tested, 0.9% active;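 active means inhibition above the mean plus 3 SD, with well images judged a real hit on visual review, cut at about 60% in these data, passing the limit was not always enough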
GALR2 ag – agonists of human galanin receptor 2 (GALR2). O43603. GALR2-expressing cells, agonist activation read-out. activation, %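 (tested at 5 µM)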. 140,000 tested, 0.48% active;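 active means above mean plus 3 SD of all compounds, about 5% in these data, not always enough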;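 further: 0% = vehicle buffer wells and 100% = reference agonist at full effect; tested in CHO reporter cells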
Target sequence (O43603 whole entry, looked up): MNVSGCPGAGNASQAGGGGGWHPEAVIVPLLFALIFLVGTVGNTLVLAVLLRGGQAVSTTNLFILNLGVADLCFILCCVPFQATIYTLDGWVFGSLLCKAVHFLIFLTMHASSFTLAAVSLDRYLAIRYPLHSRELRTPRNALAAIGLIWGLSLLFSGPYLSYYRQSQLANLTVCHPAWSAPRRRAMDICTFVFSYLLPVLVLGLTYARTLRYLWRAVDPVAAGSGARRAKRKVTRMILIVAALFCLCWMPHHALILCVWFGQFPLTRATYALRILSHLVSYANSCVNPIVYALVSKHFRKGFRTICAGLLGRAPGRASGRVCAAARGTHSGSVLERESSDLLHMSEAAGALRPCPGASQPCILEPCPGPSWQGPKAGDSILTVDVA
HSV replic up – HSV replication enhancement | HSV replication augmentation in cells, fold increase | maximum fold increase | AID 1956 | 220,000 tested, 0.005% active;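 active means peak rise of 1.5-fold or more in the series; tested in PC3 cells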;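 further: first round at 10 µM; read as green reporter fluorescence; hits show the peak of a series up to 25 µM; 1 = signal of infected wells without compound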
Insulin prom inh cell count – recorded beside Insulin prom inh, whose call it bears; normalized cell count, %; measured here: cell count, toxicity; reference of the scale not given here;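 cells exposed to compound for 48 h; stained nuclei by imaging scaled within each plate; lower means fewer cells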
HSV replic up primary fold – second read-out of HSV replic up, no call of its own (marks repeat the call); fold increase; compound at 10 µM; measured here: primary screen fold increase 10 uM; tested in PC3 cells;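 GFP signal in the first replicate; 1 = infected wells without compound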
An asterisk follows results filed as active.

What do the screens show for `Oc1cccc(C(O)CNCc2ccc(OCc3ccc(Cl)cc3Cl)cc2)c1` (stereo unspecified)?
PKD1 kinase inh: -10; RGS16-Gao: 100; Insulin prom inh: 0; HSV replic up: inactive; Insulin prom inh cell count: 104; HSV replic up primary fold: 0.81

What do the screens show for `COc1ccc(OC)c(C2C3=C(N=C4SCC(=O)N42)c2ccccc2CC3)c1` (stereo unspecified)?
PKD1 kinase inh: 3; RGS16-Gao: 101; Insulin prom inh: 50; GALR2 ag: -1.2; HSV replic up: inactive; Insulin prom inh cell count: 70; HSV replic up primary fold: 1

What do the screens show for `Nc1nc(-c2ccccc2)cn1/N=C/c1ccccc1`?
RGS16-Gao: 97; HSV replic up: inactive; HSV replic up primary fold: 1

How did Cc1ccccc1CSc1ccc(-c2ccc3c(c2)OCO3)nn1 do in these assays?
PKD1 kinase inh: 1; RGS16-Gao: 106; GALR2 ag: -0.6; HSV replic up: inactive; HSV replic up primary fold: 1.1

How did N/C(=N\OS(=O)(=O)c1cccc([N+](=O)[O-])c1)c1ccncc1 do in these assays?
PKD1 kinase inh: 4; RGS16-Gao: 105; Insulin prom inh: 9; GALR2 ag: 1.0; HSV replic up: inactive; Insulin prom inh cell count: 164; HSV replic up primary fold: 0.96

How did CCOc1nc(NCCC2=CCCCC2)nc(N2CCOCC2)n1 do in these assays?
PKD1 kinase inh: -1; RGS16-Gao: 100; Insulin prom inh: -7; GALR2 ag: 0.1; HSV replic up: inactive; Insulin prom inh cell count: 72; HSV replic up primary fold: 1.1

What do the screens show for `O=C(O)C1C2C=CC(C2)C1C(=O)OCC1CCCO1` (stereo unspecified)?
PKD1 kinase inh: 5; RGS16-Gao: 108; GALR2 ag: -5.5; HSV replic up: inactive; HSV replic up primary fold: 0.89

Results for Cc1ccc(OC(=O)CCC(=O)Nc2ccc(Br)cc2)cc1 ?
PKD1 kinase inh: 10; RGS16-Gao: 109; GALR2 ag: -0.9

What do the screens show for `CCOC(=O)C1=C(C(F)(F)F)Nc2ncnn2C1c1cc(OC)ccc1OC` (stereo unspecified)?
PKD1 kinase inh: -8; RGS16-Gao: 103; Insulin prom inh: -10; GALR2 ag: -0.5; HSV replic up: inactive; Insulin prom inh cell count: 105; HSV replic up primary fold: 0.92

What do the screens show for `CCc1ccc(-c2nc(CSCC(=O)NCCCN3CCCC3=O)c(C)o2)cc1`?
PKD1 kinase inh: -10; RGS16-Gao: 92; Insulin prom inh: -71; GALR2 ag: -1.4; HSV replic up: inactive; Insulin prom inh cell count: 84; HSV replic up primary fold: 0.79

What do the screens show for `COc1ccc2nc(C)cc(SCC(=O)N/N=C/c3ccc(O)cc3O)c2c1`?
PKD1 kinase inh: 14; RGS16-Gao: 58; GALR2 ag: -1.4; HSV replic up: inactive; HSV replic up primary fold: 0.78

How did CN(C)C(CNC(=O)c1ccc2c(=O)n(-c3ccccc3F)c(=S)[nH]c2c1)Cc1ccccc1 (stereo unspecified) do in these assays?
PKD1 kinase inh: 4; RGS16-Gao: 107; HSV replic up: inactive; HSV replic up primary fold: 1

How did CC(C)CC(=O)c1c[nH]c(C(=O)NCCCN2CCOCC2)c1 do in these assays?
PKD1 kinase inh: -2; RGS16-Gao: 105; GALR2 ag: -0.5; HSV replic up: inactive; HSV replic up primary fold: 0.79

What do the screens show for `CCn1cc(NC(=O)CCl)c(C)n1`?
PKD1 kinase inh: -3; RGS16-Gao: 102; Insulin prom inh: 30; HSV replic up: inactive; Insulin prom inh cell count: 76; HSV replic up primary fold: 0.97

How did COc1ccc(S(=O)(=O)Nc2nnc(C(C)(C)C)s2)cc1 do in these assays?
PKD1 kinase inh: 17; RGS16-Gao: 86; Insulin prom inh: -39; GALR2 ag: -1.2; HSV replic up: inactive; Insulin prom inh cell count: 81; HSV replic up primary fold: 0.92

Structures above that have fluorine:
What do the screens show for `CCOC(=O)C1=C(C(F)(F)F)Nc2ncnn2C1c1cc(OC)ccc1OC` (stereo unspecified)?
PKD1 kinase inh: -8; RGS16-Gao: 103; Insulin prom inh: -10; GALR2 ag: -0.5; HSV replic up: inactive; Insulin prom inh cell count: 105; HSV replic up primary fold: 0.92

How did CN(C)C(CNC(=O)c1ccc2c(=O)n(-c3ccccc3F)c(=S)[nH]c2c1)Cc1ccccc1 (stereo unspecified) do in these assays?
PKD1 kinase inh: 4; RGS16-Gao: 107; HSV replic up: inactive; HSV replic up primary fold: 1

(cont.)
Results for CC1(C)CC(=O)C2=C(C1)NCN(Cc1ccc3c(c1)OCO3)C2 ?
PKD1 kinase inh: 6; RGS16-Gao: 106; Insulin prom inh: 3; GALR2 ag: -3.2; HSV replic up: inactive; Insulin prom inh cell count: 180; HSV replic up primary fold: 0.89

What do the screens show for `O=C(N/N=C/c1c[nH]c2ccccc12)c1cc(-c2ccc3ccccc3c2)n[nH]1`?
PKD1 kinase inh: 3; RGS16-Gao: 49; GALR2 ag: 1.6; HSV replic up: inactive; HSV replic up primary fold: 0.8

What do the screens show for `COc1ccc(S(=O)(=O)N(C)CC(=O)Nc2ccc(C(F)(F)F)cc2)cc1Cl`?
PKD1 kinase inh: 3; RGS16-Gao: 98; Insulin prom inh: 0; GALR2 ag: -1.0; HSV replic up: inactive; Insulin prom inh cell count: 80; HSV replic up primary fold: 1.1

How did O=c1/c(=C\c2cccn2-c2ccccc2)sc2nc3ccccc3n12 do in these assays?
PKD1 kinase inh: -9; RGS16-Gao: 101; Insulin prom inh: 7; GALR2 ag: -1.9; HSV replic up: inactive; Insulin prom inh cell count: 97; HSV replic up primary fold: 0.94

What do the screens show for `Cc1sc2ncnc(NCc3ccco3)c2c1C`?
PKD1 kinase inh: -6; RGS16-Gao: 77; Insulin prom inh: -43; GALR2 ag: 0.3; Insulin prom inh cell count: 134

What do the screens show for `O=C1Nc2ncccc2OC1CCCl` (stereo unspecified)?
PKD1 kinase inh: 0; RGS16-Gao: 99; Insulin prom inh: -56; GALR2 ag: 0.2; Insulin prom inh cell count: 162

Results for COc1ccccc1Oc1ccc(N/C=C/C(=O)c2ccco2)cc1 ?
PKD1 kinase inh: -4; RGS16-Gao: 98; HSV replic up: inactive; HSV replic up primary fold: 0.86

How did COC(=O)NC1(C(=O)O)CCCC1 do in these assays?
RGS16-Gao: 106; HSV replic up: inactive; HSV replic up primary fold: 1.1

Results for COc1ccc(CC(=O)O/N=C(\N)Cc2ccc(OC)c(OC)c2)cc1 ?
PKD1 kinase inh: 2; RGS16-Gao: 95; Insulin prom inh: 18; GALR2 ag: 0.1; HSV replic up: inactive; Insulin prom inh cell count: 52; HSV replic up primary fold: 1.1

What do the screens show for `COc1ccc(N(CC(=O)NC2CCCC2)C(=O)c2ccc(N3CCCCC3)nc2)cc1`?
PKD1 kinase inh: -5; RGS16-Gao: 115; Insulin prom inh: -27; GALR2 ag: -3.0; HSV replic up: inactive; Insulin prom inh cell count: 108; HSV replic up primary fold: 0.85

What do the screens show for `C=CCn1c(SCC(=O)NC(=O)NCc2ccco2)nc2sc(CC)cc2c1=O`?
PKD1 kinase inh: -10; RGS16-Gao: 100; Insulin prom inh: -7; GALR2 ag: -0.5; HSV replic up: inactive; Insulin prom inh cell count: 63; HSV replic up primary fold: 0.88

How did COC(=O)N/N=C(/c1ccccc1)C1CCCCC1 do in these assays?
PKD1 kinase inh: -3; RGS16-Gao: 101; Insulin prom inh: 33; HSV replic up: inactive; Insulin prom inh cell count: 126; HSV replic up primary fold: 1.1

Results for COc1cccc(CN2CCNC(=O)C2CC(=O)NCCn2cccn2)c1OC (stereo unspecified) ?
PKD1 kinase inh: -6; RGS16-Gao: 105; Insulin prom inh: -43; HSV replic up: inactive; Insulin prom inh cell count: 100; HSV replic up primary fold: 1.1

How did CC(=O)CCc1ccc(Oc2nc(-c3cccnc3)nc3ccccc23)cc1 do in these assays?
PKD1 kinase inh: -2; RGS16-Gao: 109; Insulin prom inh: -14; Insulin prom inh cell count: 45

What do the screens show for `CCCNC(=O)C1CN(S(=O)(=O)c2ccccc2)CCN1S(=O)(=O)c1ccccc1` (stereo unspecified)?
PKD1 kinase inh: -3; RGS16-Gao: 105; Insulin prom inh: -285; GALR2 ag: -1.1; HSV replic up: inactive; Insulin prom inh cell count: 44; HSV replic up primary fold: 1

What do the screens show for `COc1ccccc1C(O)(C(=O)NNc1cccc(C)c1)c1ccccc1OC`?
PKD1 kinase inh: -1; RGS16-Gao: 118; Insulin prom inh: -50; GALR2 ag: -3.1; HSV replic up: inactive; Insulin prom inh cell count: 79; HSV replic up primary fold: 0.97

How did CCOC(=O)n1c(=O)n(Cc2ccccc2Cl)c2ccccc21 do in these assays?
PKD1 kinase inh: -8; RGS16-Gao: 88; Insulin prom inh: -26; GALR2 ag: -3.1; HSV replic up: inactive; Insulin prom inh cell count: 130; HSV replic up primary fold: 0.89

Results for CC(C)n1c(=NC(=O)c2ccco2)c(C#N)cc2c(=O)n3ccccc3cc21 ?
PKD1 kinase inh: 13; RGS16-Gao: 103; Insulin prom inh: -22; GALR2 ag: 6.3*; Insulin prom inh cell count: 123

How did O=C(C1CCCO1)N1CCN(S(=O)(=O)c2cccc3nsnc23)CC1 (stereo unspecified) do in these assays?
PKD1 kinase inh: 2; RGS16-Gao: 95; Insulin prom inh: 4; GALR2 ag: -1.3; HSV replic up: inactive; Insulin prom inh cell count: 89; HSV replic up primary fold: 0.92

How did Cc1nn(CCO)c2nc(-c3cccs3)cc(C(F)(F)F)c12 do in these assays?
PKD1 kinase inh: 12; RGS16-Gao: 102; Insulin prom inh: -38; GALR2 ag: -0.7; HSV replic up: inactive; Insulin prom inh cell count: 100; HSV replic up primary fold: 0.9

How did CCOC(=O)C1(CC2CCCCO2)CCN(Cc2nccn2-c2ccc(OC)cc2)CC1 (stereo unspecified) do in these assays?
PKD1 kinase inh: -4; RGS16-Gao: 103; HSV replic up: inactive; HSV replic up primary fold: 0.92

How did O=C(COc1ccccc1/C=C1/NC(=O)NC1=O)Nc1ccccc1 do in these assays?
PKD1 kinase inh: -1; RGS16-Gao: 105; Insulin prom inh: 11; GALR2 ag: -1.3; HSV replic up: inactive; Insulin prom inh cell count: 126; HSV replic up primary fold: 0.89

How did O=C(O)c1cc2cc(Cl)ccc2oc1=O do in these assays?
PKD1 kinase inh: -4; RGS16-Gao: 97; GALR2 ag: -1.3; HSV replic up: inactive; HSV replic up primary fold: 1.1

How did CCOc1cc(/C=N/NC(N)=O)ccc1OCC(=O)Nc1ccc(C)c(C)c1 do in these assays?
PKD1 kinase inh: 4; RGS16-Gao: 103; HSV replic up: inactive; HSV replic up primary fold: 0.99

How did CCC(=O)N1c2ccccc2NC2=C(C(=O)CCC2)C1c1ccc(N(C)C)cc1 (stereo unspecified) do in these assays?
PKD1 kinase inh: 2; RGS16-Gao: 75; Insulin prom inh: -29; GALR2 ag: -0.3; HSV replic up: inactive; Insulin prom inh cell count: 98; HSV replic up primary fold: 0.92

Results for O=C(NCCCn1ccnc1)c1cccnc1 ?
PKD1 kinase inh: -8; RGS16-Gao: 128; Insulin prom inh: 19; GALR2 ag: -1.9; HSV replic up: inactive; Insulin prom inh cell count: 211; HSV replic up primary fold: 1.3

Results for CCOC(=O)c1cc(-c2ccccc2)sc1NC(=O)C(C)Sc1nnc(C)s1 (stereo unspecified) ?
PKD1 kinase inh: 0; RGS16-Gao: 39; Insulin prom inh: 0; GALR2 ag: 0.1; HSV replic up: inactive; Insulin prom inh cell count: 103; HSV replic up primary fold: 0.95

What do the screens show for `CC(C)NC(=O)CN1C(=O)NC(CCc2ccccc2)C1=O` (stereo unspecified)?
PKD1 kinase inh: -3; RGS16-Gao: 103; Insulin prom inh: -21; GALR2 ag: -2.0; HSV replic up: inactive; Insulin prom inh cell count: 79; HSV replic up primary fold: 0.86

What do the screens show for `COc1ccc(C(=O)NNC(=S)NC(=O)c2ccccc2[N+](=O)[O-])cc1`?
PKD1 kinase inh: -2; RGS16-Gao: 84; Insulin prom inh: 47; GALR2 ag: -1.0; HSV replic up: inactive; Insulin prom inh cell count: 119; HSV replic up primary fold: 0.95

What do the screens show for `CSc1cccc(NC(=S)N(C(C)C)C(C)c2ccccn2)c1` (stereo unspecified)?
PKD1 kinase inh: -7; RGS16-Gao: 98; Insulin prom inh: -46; HSV replic up: inactive; Insulin prom inh cell count: 116; HSV replic up primary fold: 1

Results for Clc1ccc(Cn2c(-c3cccnc3Cl)nc3ccccc32)c(Cl)c1 ?
PKD1 kinase inh: -1; RGS16-Gao: 103; GALR2 ag: -1.9; HSV replic up: inactive; HSV replic up primary fold: 1

How did CCOC(=O)N1CCC(=NNC(=O)NC2CCCCC2)CC1 do in these assays?
PKD1 kinase inh: 2; RGS16-Gao: 99; HSV replic up: inactive; HSV replic up primary fold: 1.1
